Arbovirus anti: antivirals against arbovirus infection, primary screen, cell-based, full library, 10K replicate subset; arbovirus infection cell-based antiviral screen; hit rate 0.37% among 200,000; inhibition, % at 10 µM;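 active = inhibition from about 30%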;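 note: bluetongue infection of BSR cells; cell survival read as ATP light after 72 h; 0% = infected wells without compound and 100% = uninfected wells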
RecA splice inh: Mtb RecA intein splicing inhibitors, primary screen, biochemical, fluorescence, HTS; Protein RecA (Mycobacterium tuberculosis (strain ATCC 25618 / H37Rv)), P9WHJ3; cell-free RecA intein splicing; inhibition, %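 (about 9 µM by stock and volumes)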; hit rate 0.75% among 290,000; AID 2221, 2009; in the data active = inhibition above about 30%; inconclusive = no clear call, values can overlap the other calls;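 note: 0% = vehicle wells and 100% = reference inhibitor control wells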
Target sequence (P9WHJ3 whole entry, looked up, canonical isoform): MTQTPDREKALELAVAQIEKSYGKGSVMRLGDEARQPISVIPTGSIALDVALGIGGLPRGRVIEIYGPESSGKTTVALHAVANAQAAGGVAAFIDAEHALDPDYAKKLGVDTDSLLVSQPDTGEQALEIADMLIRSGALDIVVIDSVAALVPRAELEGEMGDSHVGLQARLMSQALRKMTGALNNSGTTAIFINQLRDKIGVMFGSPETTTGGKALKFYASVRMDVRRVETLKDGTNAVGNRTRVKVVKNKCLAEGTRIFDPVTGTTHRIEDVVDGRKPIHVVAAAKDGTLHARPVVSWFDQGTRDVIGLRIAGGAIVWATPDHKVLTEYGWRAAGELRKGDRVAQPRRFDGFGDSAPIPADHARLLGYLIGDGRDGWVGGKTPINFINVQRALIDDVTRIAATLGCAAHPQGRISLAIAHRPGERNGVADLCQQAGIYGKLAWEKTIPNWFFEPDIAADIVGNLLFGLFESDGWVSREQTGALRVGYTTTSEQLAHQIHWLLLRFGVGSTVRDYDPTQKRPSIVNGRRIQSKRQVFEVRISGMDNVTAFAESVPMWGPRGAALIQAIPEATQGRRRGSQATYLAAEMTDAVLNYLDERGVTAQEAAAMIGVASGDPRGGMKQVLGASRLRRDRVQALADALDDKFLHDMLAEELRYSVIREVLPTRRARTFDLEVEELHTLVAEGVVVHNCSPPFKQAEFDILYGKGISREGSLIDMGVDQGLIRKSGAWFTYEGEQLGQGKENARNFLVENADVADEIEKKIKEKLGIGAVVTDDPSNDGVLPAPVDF
Mtb H37Rv: M. tuberculosis H37Rv growth inhibitors, H37Rv strain (AID 1626) | M. tuberculosis H37Rv growth inhibition; higher % means a stronger effect | one-dose inhibition, % at 10 µM; IC50 in µM for titrated hits | hit rate 0.95% among 220,000;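 active = confirmed in a dose series; inconclusive = inhibition above 80% but not taken into the dose series; inactive = below 80% or under 30% at every dose of the series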;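 note: bacteria incubated seven days before Alamar blue readout; 0% = bacteria only wells and 100% = bacteria with antibiotic wells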
Mtb bLac sens: beta-lactam sensitization of Mtb H37Rv, H37Rv. M. tuberculosis H37Rv growth with meropenem, percent inhibition; hits of this screen are not shown here. inhibition, % at 25 µM. hit rate 0.27% among 330,000;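 active = about 74% or more and at least 40 points above the plate without the antibiotic, then above 30% in a dose series; inconclusive = first-round hits that could not be retested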;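 note: growth measured after seven days incubation then overnight dye step; 0% = bacteria only wells and 100% = bacteria with antibiotic; twin plates without the antibiotic show which effects depend on it; some results filed as inactive read as strong as hits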
YopH PTP inh: YopH tyrosine phosphatase inhibitors, primary screen, biochemical, fluorescence Ex485/Em525 | hit rate 0.16% among 140,000 | AID 898, 2007 | YopH tyrosine phosphatase [Yersinia enterocolitica] | inhibition, %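 (about 10 µM by stock and volumes)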;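 active = inhibition of 50% or more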;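 note: controls were vehicle for no effect and minimum signal wells for full effect; inactives centre near -20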
Arbovirus anti repeat: further read-out of Arbovirus anti, marked with its call; inhibition, %; measured here: 10K subset replicate screen; many hits read low in the repeat;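 first of two repeat runs on a subset; 0% = infected and 100% = uninfected wells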
The depositor's hits bear a star; ? = inconclusive; . = not tested or not shown.

SMILES	Arbovirus anti	RecA splice inh	Mtb H37Rv	Mtb bLac sens	YopH PTP inh	others
COC(CNC(=O)c1cc(C(=O)c2c(-c3c(Cl)cccc3Cl)noc2C)c[nH]1)OC	2	2.5	0%	29	-29
Cc1cccc(N2C(=O)CC(N3CCN(Cc4ccc5c(c4)OCO5)CC3)C2=O)c1 (stereo unspecified)	5	-0.2	-9%	-14	-39
O=C(COc1nsnc1N1CCOCC1)Nc1ccc(Br)cc1	.	2.3	.	9	.
COC(=O)c1[nH]c2ccc(C)cc2c1NC(=O)CCN1CCN(C2CCCCC2)CC1	-11	2.8	-8%	.	-8
O=c1[nH]c2cccnc2c2ccsc12	-11	-0.6	-2%	0	.
O=C(CNS(=O)(=O)c1ccccc1)NCc1ccco1	.	-4.1	.	-6	.
COC(=O)N/N=C/c1cccc(OCCSc2ccc(Cl)cc2)c1	5	19	5%	7	-23
O=c1[nH]c2ccc(S(=O)(=O)N3CCN(Cc4ccccc4)CC3)cc2[nH]c1=O	1	0.2	-8%	-3	-41
COc1ccc(N2CCN(Cc3ccc(Br)s3)CC2)cc1	18	1.5	-2%	5	-29
Cc1cc(C)c(C)c(S(=O)(=O)N2C(=S)NC(=O)C2C(C)C)c1C (stereo unspecified)	19	.	10%	.	-1
CCCC(C(=O)NC(C)(C)C)N(Cc1ccc(F)cc1)C(=O)c1snc(C(N)=O)c1N (stereo unspecified)	.	-0.8	.	0	.
Cc1ccc(S(=O)(=O)CCC(=O)OCC(=O)Nc2ncc(Cl)cc2Cl)cc1	-5	2.9	-2%	0	-54
O=C(NC(=S)NC1CCCC1)c1ccccc1	.	2.6	.	-2	.
O=C(CSC(=S)N1CCCC1)c1cc(Br)cc(Br)c1O	13	-2.6	?	98	.
CCOC(=O)CC(=O)N/N=C/c1c(N)n(C)c(=O)n(C)c1=O	0	0.1	6%	-1	.
COc1ccc(C(=O)COC(=O)c2ccc(N(C)C)cc2)cc1	1	-4.3	-2%	5	.
CC1C(=O)OC(c2ccc(Cl)cc2)C(C)(C)C1=O (stereo unspecified)	.	2.6	.	-6	.
O=C(O)c1cc(S(=O)(=O)Nc2ccc3c(c2)OCCO3)c(Cl)cc1Cl	-1	-3.5	9%	10	-55	Arbovirus anti repeat=1
Cc1ccc(C)c(SCC(=O)OCC(=O)Nc2ncc(C(F)(F)F)cc2Cl)c1	-6	-3.1	3%	4	-19
Cc1[nH][nH]c(=O)c1C(c1ccc(O)c(Br)c1)c1c(C)[nH][nH]c1=O	.	98*	.	-2	.
O=C(c1nc2nc(-c3ccccc3)cc(C(F)(F)F)n2n1)N1CCCCC1	9	.	4%	1	3
CC(C)[C@H](NC(=O)N1c2ccccc2NC(=O)[C@@H]1C(C)C)C(=O)N[C@@H](Cc1ccccc1)C(=O)O	.	-0.2	.	1	.
O=C(CN1CCN(S(=O)(=O)c2ccc3ccccc3c2)CC1)Nc1ccc2c(c1)CCC2	-5	4.0	6%	-2	-36
COc1ccc(/C=N/NC(=O)c2ccccc2O)cc1Cn1nnc2ccccc21	.	0.4	0%	-4	.
O=C(C1CCOCC1)N1CCC(CO)(CCc2ccccc2)CC1	2	-1.3	-2%	-9	.
COCc1cc(=O)[nH]c(SCC(=O)N2CCOCC2)n1	.	0.0	.	3	.
O=C(N/N=C/c1c[nH]c2ccccc12)c1[nH]c2ccc(Br)cc2c1-c1ccccc1	-34	-7.5	?	.	-19
O=C(c1ccc(Cl)cc1)N1CCN(c2cc(=O)[nH]nc2-c2ccccc2)CC1	5	0.1	-7%	-1	-19
O=C(NC(=S)Nc1ccc(Cl)cn1)C12CC3CC(CC(C3)C1)C2	0	7.0	5%	82	.
COC(=O)C(C)n1cnc2c(nnn2-c2ccc(F)cc2)c1=O (stereo unspecified)	.	-1.6	.	0	.
CCN(CC(=O)Nc1cccc(OC)c1)C(=O)c1cnc(Cl)c(Cl)c1	.	-2.0	.	4	.
O=C(NNC(=O)C1CCCC1)c1ccccc1F	.	-1.8	.	10	.
COc1ccc(OC)c(-c2cc(C3CCN(C(=O)OC(C)(C)C)CC3)[nH]n2)c1	-17	2.1	12%	24	.
N#CC1=C(N)N2C(=C(C#N)C13CCCC3)Nc1ccccc12	3	2.6	1%	-2	.
Cc1ccc2nc(-c3ccccc3)c(CN3CCOCC3)n2c1	11	-2.3	-4%	-1	.
O=C(Nc1ccc(OC(F)F)cc1)c1ncc(Cl)c(Cl)c1Cl	8	0.3	5%	4	.
O=Cc1c(NCc2ccccc2Cl)c2ccccc2[nH]c1=O	.	2.1	.	-9	.
CCOC(=O)c1nn(-c2ccccc2)c(C(=O)OCC)c1N	-1	2.2	-5%	6	-6
CC1C(=O)N2CCCc3cc(NC(=O)c4ccccc4F)cc1c32 (stereo unspecified)	.	1.9	.	-8	.
Cc1ccc2c(c1)c(C)cc[n+]2Cc1ccccc1	7	2.3	-4%	1	-24
COc1ccc(C(=O)NCc2nnc(SCC(=O)Nc3nnc(C)s3)o2)cc1	3	-4.4	4%	-2	.
CCN(CC)C(=O)COc1cccc2ccccc12	-3	4.8	-3%	-2	-19
CCOC(=O)C1(CCOc2ccccc2)CCN(Cc2ccc(C)s2)CC1	11	4.3	6%	34	.
CCN(CC(=O)Nc1c(F)cccc1F)C(=O)c1cccc(S(=O)(=O)NCc2ccccc2)c1	.	10.0	.	-13	.
COc1ccc(-n2c(SCC(=O)Nc3cc(C)on3)nc3ccc(O)cc3c2=O)cc1OC	7	-16	1%	4	-2
O=c1ccc(/C=C/c2ccccc2)nn1Cc1ccccc1Cl	-8	9.9	16%	8	-10
COc1cc(OCC(N)=O)cc(OC)c1OC	5	-1.2	-4%	-3	-9
O=[N+]([O-])c1ccc(C2CCCC/C2=N/O)c([N+](=O)[O-])c1 (stereo unspecified)	.	-2.2	.	2	.
CCCCCCCSc1nnc(N)s1	.	9.8	-6%	0	.
O=C(Nc1nccs1)c1ccc(-c2ccc(Cl)cc2Cl)o1	1	-1.5	?	90	-27
Cc1ccc2c(c1)N(CCC(=O)NCC1COc3ccccc3O1)C(=O)CO2 (stereo unspecified)	8	3.2	2%	4	-7
Cc1ccccc1C1=NCC(=O)N(CC(=O)N2CCCCC2)c2sc(C)c(C)c21	2	0.9	-15%	-1	2
COc1ccc(NC(=O)CN(C)C(=O)CCNC(=O)c2ccccc2OC)cc1	.	1.7	.	-4	.
Cc1cccc(OCC(=O)NCCCNC(=O)c2ccccn2)c1	.	-0.1	.	-10	.
CCC(CC)C(=O)c1c[nH]c(C(=O)N2CCN(c3ccccc3)CC2)c1	2	3.6	5%	7	.
COc1ccc(C(=O)Nc2ccnn2C2CCN(C(=O)c3cnsn3)CC2)cc1	.	-1.3	.	-1	.
Cc1ccc2[nH]c(O)c(N=NC(=O)C3CC3c3ccccc3)c2c1Br (stereo unspecified)	-18	0.1	7%	?	-10
Cc1ccc(C2C(C#N)=C(N)N(c3ncn[nH]3)C3=C2C(=O)CC(C)(C)C3)cc1 (stereo unspecified)	11	-3.3	2%	-4	7
CCC1SC(=NC(=O)c2ccc(Cl)c(Cl)c2)NC1=O (stereo unspecified)	8	0.4	9%	-4	-9
Cc1csc(N2CCc3ccccc32)n1	17	0.5	-9%	-8	54*

Overlap with the part before: two entries, followed by the next part.
SMILES	Arbovirus anti	RecA splice inh	Mtb H37Rv	Mtb bLac sens	YopH PTP inh	others
CCC1SC(=NC(=O)c2ccc(Cl)c(Cl)c2)NC1=O (stereo unspecified)	8	0.4	9%	-4	-9
Cc1csc(N2CCc3ccccc32)n1	17	0.5	-9%	-8	54*
CCC(C)Sc1nc2c(c(=O)[nH]c(=O)n2C)n1CC(O)COc1cccc2ccccc12 (stereo unspecified)	-6	2.9	-6%	-9	-44
C=C1CCN([C@@H](CC(C)C)C(=O)N2CCCC2)S(=O)(=O)c2ccccc21	.	0.5	-5%	-5	.
Cc1cc(Nc2cccc(F)c2)nc(N2CCOCC2)n1	.	-1.6	-2%	2	.
COc1cc(OC)c(C2Nc3cccc4cccc(c34)N2)c(OC)c1	.	-2.0	.	6	.
COc1ccccc1C1CCN(Cc2ccccc2)CC1	.	5.7	.	-6	.
CC(Sc1n[nH]c(N)n1)C(=O)C12CC3CC(CC(C3)C1)C2 (stereo unspecified)	5	2.7	-9%	-3	-10
Cc1ccccc1N(C(=O)c1snc(C(N)=O)c1N)C(C)C(=O)NC1CCCCC1 (stereo unspecified)	.	-0.4	.	-7	.
CCOC(=O)c1sc(NC(=O)c2cccc(S(=O)(=O)N(CC)CC)c2)cc1C	-16	0.3	-11%	-11	5
COc1ccccc1C(=O)NCCC(=O)N(C)CC(=O)Nc1ccc(N2CCOCC2)cc1	.	-1.6	.	-4	.
Cc1cc(OCC(=O)NNC(=O)c2ccncc2)ccc1C(C)C	.	3.4	.	98	.
CCOC(=O)C1(Cc2cccc(OC)c2)CCCN(C(=O)c2cc(C)[nH]n2)C1 (stereo unspecified)	7	1.2	3%	-6	.
CC(=O)Oc1ccc(/C=C2\C=C(c3ccc(C)cc3)OC2=O)cc1	.	-0.4	.	11	.
Cc1ccc(C(=O)Oc2ccccc2N2CCOCC2)cc1	.	-0.4	1%	-2	.
Cc1ccc(-c2noc(CSc3nnc(Cc4cccs4)n3-c3ccccc3)n2)cc1	-27	13	6%	6	-10
CCOC(=O)c1c(NC(=O)C2(C)Cc3ccccc3C(=O)O2)sc2c1CCCC2 (stereo unspecified)	-15	2.3	7%	8	-24
O=C(NCc1ccccc1)NC1(C(=O)Nc2ccc3c(c2)OCCO3)CCCCC1	-4	1.0	-2%	4	-33
Nc1nc(-c2cccnc2)nn1C(=O)c1ccc(Cl)cc1	1	24	3%	.	.
O=C(Cc1ccccc1)c1c[nH]c(C(=O)O)c1	-1	-1.4	-2%	-4	.
CCCNC(=O)c1ccccc1NC(=O)C1COc2ccccc2O1 (stereo unspecified)	3	0.9	3%	1	-107
O=S(=O)(c1ccc(F)cc1)N1CCN(S(=O)(=O)c2cc(F)ccc2F)CC1	.	-1.6	.	3	.
O=C(Cc1c(C(=O)O)[nH]c2ccc(Cl)cc12)Nc1ccc2c(c1)OCCO2	16	-6.0	-2%	-1	-16
O=C(CSc1n[nH]c(-c2ccccc2)n1)N1CCOCC1	.	2.8	.	-4	.
COc1ccc(NC(C)=O)cc1CNC(=O)COc1ccccc1C(=O)Nc1cccc(C)c1C	.	-2.9	.	6	.
CSc1nc(Cl)cc(Nc2ccc(O)cc2)n1	-25	-0.6	3%	5	.
Cc1sc2ncn(CC(=O)NCC(=O)N(C)Cc3ccccc3)c(=O)c2c1C	-3	-0.4	-6%	-8	-32
Nc1cc(=O)[nH]c(SCc2cccc(Cl)c2)n1	-2	.	-6%	-2	-31
COc1ccc(N/C=C(\[N+](=O)[O-])S(=O)(=O)c2ccccc2)cc1	.	1.5	.	88	.
CC(C)OC(=O)CSc1nc(C(C)C)nc2ccccc12	-1	11	0%	2	.
CCOC(=O)c1sc2nc(C)[nH]c(=S)c2c1C	15	5.2	39µM*	.	.
CCCCOc1ccc(CC2C(=O)N(C)C(=O)N(C)C2=O)cc1	1	.	-4%	4	-18

Some of these compounds in order of number of heavy atoms, ascending.
SMILES	Arbovirus anti	RecA splice inh	Mtb H37Rv	Mtb bLac sens	YopH PTP inh	others
O=C(CSc1n[nH]c(-c2ccccc2)n1)N1CCOCC1	.	2.8	.	-4	.
CCCNC(=O)c1ccccc1NC(=O)C1COc2ccccc2O1 (stereo unspecified)	3	0.9	3%	1	-107
O=S(=O)(c1ccc(F)cc1)N1CCN(S(=O)(=O)c2cc(F)ccc2F)CC1	.	-1.6	.	3	.

Following part:
SMILES	Arbovirus anti	RecA splice inh	Mtb H37Rv	Mtb bLac sens	YopH PTP inh	others
C=CCn1c(SCc2c(C)noc2C)nc2sc3c(c2c1=O)CCCC3	-17	5.9	10%	46	17
CSc1ccccc1NC(=S)N/N=C/c1cccn1Cc1cccc(C)c1	0	-2.6	-2%	-3	.
Cc1sc2ncn(CC(=O)NCCCC(=O)N3CCN(c4ncccn4)CC3)c(=O)c2c1C	7	-0.9	1%	-6	-43
CN(CC(=O)NC(=O)NCc1ccccc1)CC(=O)Nc1ccc(Cl)c(C(F)(F)F)c1	.	6.4	.	2	.
CCCNC(=O)C1CCN(c2ccc(S(=O)(=O)N3CCOCC3)cc2Cl)CC1	2	0.8	4%	1	-7
Cc1c(C)n(Cc2ccccc2)c2ncnc(Cl)c12	.	3.8	.	4	.
CCOc1ccc(NC(=O)CN2CCN(c3ccc(F)cc3)CC2)cc1	.	1.9	.	23	.
Cc1cccc(N2CCN(S(=O)(=O)c3ccc(S(=O)(=O)N4CCCC4)cc3)CC2)c1C	0	-7.3	.	-2	-2

An excerpt. The share of hits here may be higher or lower than overall.
